High-throughput results: PubChem, National Center for Advancing Translational Sciences (NCATS)
nsP2pro inh: Primary qHTS for inhibitors of NSP2Pro chikungunya virus (CHIKV); Polyprotein P1234 (Chikungunya virus (strain S27-African prototype)), Q8JUX6; FRET peptide cleavage, nsP2pro, fluorescence 1 h; Potency, µM (top dose mostly 24.9 µM), for the others: at the highest dose activity change, negative = inhibition, hits mostly inhibitors; 1.1% of 31,000 active; AID 1964107, 2024; active means well fitted inhibition curve with a large enough effect; inconclusive means small, poorly fitted or top-dose-only effect; inactive means no such curve, though single readings can be large or run the other way; also: nearly all actives have a fitted effect of over 60% in size; a reference inhibitor and vehicle were the controls
Numbers without * were called inactive; i = inactive; ? = inconclusive; & = joins results of further samples; [ ] = dose if it differs, or a comment. % is scaled to controls: 0 for no effect and ±100 for the full control effect; potency is read from the fitted curve at half-maximal effect. An excerpt (hit frequency here may not be typical).

SMILES | nsP2pro inh
COc1cccc(C)c1C(=O)O[C@@H]1C[C@H](O[C@H]2[C@H](O)C[C@H](O[C@@H]3CCC[C@H]4[C@H]3C=C[C@@H]3CCCC/C=C/[C@H]5C=C(C(=O)O)[C@@H](C)C[C@@]56OC(=O)C(=C6O)OC(=O)[C@@]34C)O[C@@H]2C)O[C@H](C)[C@H]1O | ?
O=C(O)c1ccc(CO)o1 | -10%
COc1ccc(NC(=O)CN2C(=O)COc3ccc(S(=O)(=O)N4CCOCC4)cc32)cc1 | -20%
O=c1cc(CN2CCCC(c3nccn3Cc3ccccc3)C2)[nH]c(=O)[nH]1 (centres undefined) | i
CC(=O)N1CCN(C(=O)c2ccc3nnc(CC4CC4)n3c2)CC1 | -3%[39.2 µM]
COc1cccc(C2c3c(ncn(-c4cccc(F)c4)c3=N)Oc3ccc4ccccc4c32)c1 (centres undefined) | -18%
C/C=C(\C)C(=O)O[C@H]1C=C(CO)C(=O)[C@H](OC(C)=O)[C@H]1C(C)C | -25%
O=C(O)CCc1c(C(=O)O)[nH]c2cc(Cl)cc(Cl)c12 | 3%[10 µM]
CCN1CC2(CCN(Cc3cc4c(cc3OC)OCCCO4)CC2)OC1=O | i
CC(=O)N1CCC2(CC1)CN(C(=O)c1ccc(Cl)cc1)CCO2 | -13%
O=C1CN(Cc2ccc(-c3cc(F)cc(F)c3)cc2)CCN1c1cc(Cl)ncn1 | -1%
C=C1C(=O)OC2/C=C(\C)CC/C=C(\C=O)C(OC)C(OC(=O)C(C)CC)C12 (centres undefined) | 24%
Cc1ccc(OCc2nc(-c3ccc(C(=O)N4CCN(c5ccc(Cl)cc5)CC4)cc3)oc2C)cc1 | -9%
Oc1cc(NCc2ccc(F)cc2)cc2cccnc12 | i
Cc1cccc(Nc2nc(C#N)nc(NC3CCCC3)n2)c1 | 3%
CCC(=O)Oc1cc(C(C)(C)C)cc2cc(-c3nc(-c4ccc(OC)cc4OC)no3)c(=O)oc12 | ?
COc1ccccc1N1CCN(C(=O)c2nc(-c3ccc(C)cc3)n3c2CCCCC3)CC1 | -17%
C=CCCN1CCC2(CC1)CN(C(=O)c1c(F)cccc1F)c1ccc(Cl)cc12 | 11%
CCn1cc(S(=O)(=O)NCC2Cn3cccc3C(=O)N2C)cn1 (centres undefined) | 1%
COc1ccc(S(=O)(=O)N2CCN(c3ccccc3OC)CC2)cc1 | -17%

For convenience, part of the list above:
SMILES | nsP2pro inh
O=C1CN(Cc2ccc(-c3cc(F)cc(F)c3)cc2)CCN1c1cc(Cl)ncn1 | -1%
C=C1C(=O)OC2/C=C(\C)CC/C=C(\C=O)C(OC)C(OC(=O)C(C)CC)C12 (centres undefined) | 24%

(cont.)
SMILES | nsP2pro inh
Clc1cccc(-n2ncc3c(N4CCC(Cc5ccccc5)CC4)ncnc32)c1 | -22%
O=S1(=O)N=C(Oc2ccc(C(F)(F)F)cc2)c2ccccc21 | 2%
COc1ccc(-n2ncc3c(N4CCN(c5cccc(C)c5)C(C)C4)ncnc32)cc1 (centres undefined) | -25%
COc1ccc(NC(=O)CC2NCCNC2=O)c(OC)c1 (centres undefined) | -20%
CCNC(=O)O[C@H]1COCCN(c2nc3ccccc3o2)C1 | -4%[39.2 µM]
O=C(Oc1ccccc1F)c1nc(SCc2ccccc2F)ncc1Cl | 5%
COCCC(=O)N1CCCN(C(=O)C2CC2)c2ccccc21 | i
CCCN(C)C(=O)CCc1ccnc(N2CCOCC2)c1 | i
CCOC(=O)C1CCCN(c2c(C(=O)c3ccc(OCC)cc3)cnc3ccccc23)C1 (centres undefined) | -16%
COCCCNc1oc(/C=C/c2cc(OC)c(OC)c(OC)c2)nc1C#N | -25%
CN1C[C@H](NCc2nccs2)CCC[C@@H](C(=O)NC2CCOCC2)CC1=O | 0%[39.2 µM]
Cc1ccc2c(c1)-c1ncc(C(=O)c3cc(Br)ccc3O)cc1CO2 | -10%
N#Cc1ccc(CN2CC[C@H](c3nnc(Cc4ccccc4)o3)C2)cc1 | -4%[39.2 µM]
Cc1cc(NS(=O)(=O)c2ccc(NC(=O)Cc3cccc(Cl)c3)cc2)no1 | i
O=S(=O)(NCC(c1ccccc1)N1CCc2ccccc21)c1ccc(Cl)cc1 (centres undefined) | -16%
COc1cncc([C@@H](NC(=O)Cc2ccsc2)C2CC(O)C2)c1 (some centres undefined) | 1%
CN1CCCC1c1nc(C2CN(S(=O)(=O)c3ccc(C#N)cc3)C2)no1 (centres undefined) | 36%[activator]
C=C[C@H]1CN2CC[C@H]1C[C@@H]2CNCc1ccc2c(c1)OCO2 | i
Oc1ccc(CNc2ccc3ccccc3n2)c2cccnc12 | i
O=C(CCCN1CC=C(n2c(=O)[nH]c3ccccc32)CC1)c1ccc(F)cc1 | 1%&-19%
CCn1cc(-c2ccncc2)cc1C(=O)NCc1ccc(OC(C)C)cc1 | i
O=C(NCc1cccnc1)c1nc(-c2ccc(Cl)cc2)c2ccccn12 | -6%
O=c1c2ccccc2nc2sc(Nc3cccc(-c4ccncc4)c3)nn12 | i
Cc1cccc(CNc2ncnc3ccc(-c4ccc5c(c4)OCO5)cc23)c1 | i
C=C(C=O)[C@]1(O)C[C@@]2(C)C(=CC1=O)C=C[C@H](OC(=O)/C=C/C=C/[C@H](C)CC)[C@@H]2C | -5%[10 µM]
O=C(Cn1c2ncccc2c(=O)n1-c1ccccc1)NCc1ccccc1Cl | -24%
O=C(O)/C=C/c1ccc(Cn2ccnc2)cc1 | ?
CCOc1ccc(NC(=O)CC2C(=O)N(c3ccccc3)C(=O)N2C2CCCC2)cc1 (centres undefined) | -21%
Cc1ccc(CNC(=O)c2sc3nc4n(c(=O)c3c2C)CCCCC4)cc1 | -8%
COc1cccc(-c2ccc(C(=O)N3CCC(NC(=O)N(C)C)CC3)cc2)c1 | 2%
CC(C)C[C@H](C(=O)O)c1cc(-c2ccc(C(F)(F)F)cc2)cc(-c2ccc(C(F)(F)F)cc2)c1 | 143%[activator]
COc1ccc(-c2cn(C)c(=O)n3cc(CN4CCNC(=O)C4)nc23)cn1 | ?
Cc1ccc(CSc2ncccc2C(=O)O)cc1 | -21%
CCOc1ccccc1CN1CCC(Cc2nc(-c3cccnc3)n[nH]2)C1 (centres undefined) | i
CCOCCc1nnc(NC(=O)C(=O)c2cc(C)n(-c3ccc(C)cc3C)c2C)s1 | -14%
c1cncc(-c2ccc3ncnc(NCc4cccs4)c3c2)c1 | i
COc1cc2c(cc1O)CC[C@H]1[C@@H]2CC[C@]2(C)[C@H](O)CC[C@@H]12 | 0%
CCCCC(=O)Nc1ccccc1C(=O)OCc1cc(=O)n2nc(C3CCCCC3)sc2n1 | -18%
C=C(CC/C=C(\C)C(=O)O)C1(O)CC=C(C)CC1 (centres undefined) | 21%
COc1ccc(OC)c(-c2nnc3ccc(-c4ccc(OC)c(O[C@@H]5CCOC5)c4)nn23)c1 | 5%
CC(=O)S[C@@H]1CC2=CC(=O)CC[C@]2(C)[C@H]2CC[C@@]3(C)[C@@H](CC[C@@]34CCC(=O)O4)[C@H]12 | 23%
O=C(NC1CCCCC1)[C@@H]1Cc2nc[nH]c2CN1Cc1ccc(Cl)cc1 | i
O=C(CCC1N=C2c3ccccc3N=C(SCc3ccccc3Cl)N2C1=O)N1CCN(c2ccccc2)CC1 (centres undefined) | -19%
C[C@H]1[C@@H]2[C@@H](O)C([C@H](C)C(=O)NC3CCCCC3)CC[C@@]2(C)CC[C@@H]1NC(=O)C1CC1 (some centres undefined) | -9%[39.2 µM]
Cc1ccc(-c2nc(C(=O)Nc3cccc(C#N)c3)c3n2CCCCC3)cc1 | -17%
NC(=O)C1CCN(c2nc(-c3ccc(N4CCCCC4)nc3)cs2)CC1 | -1%
COC(=O)c1ccc2c(c1)N(CC(=O)Nc1ccc(C)c(C)c1)C(=O)c1ccccc1S2 | -25%
Cc1ccc(C(C)C)c(OCC(=O)Nc2ccc(O)c(-c3nc4cc(Cl)ccc4o3)c2)c1 | -14%
CCCNC(=O)NS(=O)(=O)c1ccc(Cl)cc1 | -6%&10%
CCN(CC)CCCC(C)n1c(-c2ccccc2)nc2c(NCCO)nc(C)nc21 (centres undefined) | 1%

Arranged by molecular weight (descending): some entries from above.
SMILES | nsP2pro inh
C[C@H]1[C@@H]2[C@@H](O)C([C@H](C)C(=O)NC3CCCCC3)CC[C@@]2(C)CC[C@@H]1NC(=O)C1CC1 (some centres undefined) | -9%[39.2 µM]
O=C(NC1CCCCC1)[C@@H]1Cc2nc[nH]c2CN1Cc1ccc(Cl)cc1 | i
CCCNC(=O)NS(=O)(=O)c1ccc(Cl)cc1 | -6%&10%

Some of the entries above in another layout:
| Molecule | nsP2pro inh |
| --- | --- |
| C[C@H]1[C@@H]2[C@@H](O)C([C@H](C)C(=O)NC3CCCCC3)CC[C@@]2(C)CC[C@@H]1NC(=O)C1CC1 (some centres undefined) | -9%[39.2 µM] |
| CCCNC(=O)NS(=O)(=O)c1ccc(Cl)cc1 | -6%&10% |
| CCN(CC)CCCC(C)n1c(-c2ccccc2)nc2c(NCCO)nc(C)nc21 (centres undefined) | 1% |
| O=C(NC1CCCCC1)[C@@H]1Cc2nc[nH]c2CN1Cc1ccc(Cl)cc1 | i |

(more compounds)
SMILES | nsP2pro inh
CCCCCCCCCCCCCCCCCCNC(=O)OC1CCN(C(=O)OC[C@H](COC(=O)N(Cc2cccc[n+]2CC)C(=O)c2ccccc2OC)OC)CC1 | 256%[activator]
CC1CCN(C(=O)Cn2cc(SCC(=O)Nc3ccccc3C(F)(F)F)c3ccccc32)CC1 | -11%
Cc1ccc(-c2csc(NC(=O)c3ccncc3NS(=O)(=O)c3ccc(C)cc3)n2)cc1 | i
COC[C@@H]1[C@H](NC(=O)c2csc(C)c2-c2ccccc2)[C@@H]2CCO[C@H]12 | 2%
O=C(Cc1ccccc1)Nc1sc2c(c1C(=O)Nc1ccc(Cl)cc1)CCCC2 | ?
COc1ccccc1N1CCN(c2ccc(NC(=O)c3ccc(C)cc3)cc2C(=O)O)CC1 | ?
COc1ccc(C(=O)N(Cc2ccco2)Cc2ccco2)c(O)c1 | 5µM*
C=Cc1c(C)c2cc3[nH]c(cc4nc(cc5nc(cc1[nH]2)C(C)=C5CCC(=O)O)C(CCC(=O)O)=C4C)c(C)c3C=C | 2%&-8%
CC(C)NC(=O)CCc1cc2n(n1)CCN(C(=O)[C@H]1CCCO1)C2 | 2%
Cc1ccccc1-c1noc(C(C)NC(=O)c2ccco2)n1 (centres undefined) | ?
CCOc1ccc(-c2nnc(SCC(=O)c3ccccc3)n2-c2ccccc2)cc1 | -12%
CCCN1CCN(CCCNC(=O)c2cc3c(s2)-c2c(C)cccc2OC3)CC1 | 34%[activator]
COc1ccc(S(=O)(=O)Nc2cnccc2C(=O)Nc2nc(-c3ccccc3)cs2)cc1 | 0%
CN(C)C[C@@H]1CN(Cc2ccccn2)C[C@H]1NC(=O)c1ccc(Cl)s1 | i
Fc1ccc(Nc2nc(SCc3cccc(F)c3)nc3ccccc23)cc1 | -26%
OCc1ccccc1 | 4%
Cc1cccc(N2CCN(S(=O)(=O)c3ccc(F)c(C(=O)Nc4cccc(Cl)c4C)c3)CC2C)c1 (centres undefined) | -6%
O=C(O)c1cc(N=Nc2ccc(O)c(C(=O)O)c2)ccc1O | -18%
CCOC(=O)c1ccc(N2C(=O)Cc3cc(OCC)c(OCC)cc3C2c2ccccc2)cc1 (centres undefined) | -12%
Cc1ccc(OCCCn2c(CCNC(=O)C3CCCCC3)nc3ccccc32)cc1 | -14%
CCOc1ccccc1CN1CCc2nc(Nc3ccccc3)ncc2C1 | -20%
O=C(Cn1ccc2ccccc2c1=O)N1CCCOC(Cn2cccn2)C1 (centres undefined) | -13%
CCCn1cnc2c1CN(S(=O)(=O)c1cccc(C(F)(F)F)c1)[C@H](C(=O)OC)C2 | ?
CC(C)(C)c1cc(C[C@@H]2C[C@H](NS(=O)(=O)c3ccccc3)C2(C)C)no1 | -22%[39.2 µM]
CCOC(=O)[C@H](CCc1ccccc1)N[C@H]1CCc2ccccc2N(CC(=O)O)C1=O | -16%&-19%&5%
O=C(CSc1nnc(-c2cccc([S+](=O)([O-])N3CCCC3)c2)n1-c1ccccc1)Nc1ccc2c(c1)OCCO2 | i
O=C(NC1CCCc2c1cnn2-c1ccc(F)cc1F)c1ccccc1 (centres undefined) | -10%&1%
O=C1CCCC2=C1C(c1[nH]ncc1Cl)NC(=NCCc1ccc(O)cc1)N2 (centres undefined) | -3%
OC[C@H]1O[C@@H](O[C@H]2[C@H](OCCc3ccccc3)O[C@H](CO)[C@@H](O)[C@@H]2O)[C@H](O)[C@@H](O)[C@@H]1O | 47%[activator][10 µM]
CN1CCCCCCN(C(=O)Cn2c(=O)oc3ccccc32)[C@H]2CCC[C@H]2C1=O | 0%
Cc1c(Br)cc(F)c([S+](=O)([O-])N2CCN([S+](=O)([O-])c3ccc4c(c3)OCCO4)CC2)c1F | -5%
CCOC(=O)c1cc(OC(=O)c2cccc(C)c2)n(-c2ccccc2)n1 | -20%
COc1cc(O)c(C(CC(=O)N2CC(C)CC(C)C2)c2ccc(O)cc2)c(OC)c1 (centres undefined) | i
O=C(Nc1cccnn1)N1CCC(=Cc2cccc(Oc3ccc(C(F)(F)F)cn3)c2)CC1 | 7%
CCCN(CCC)[C@@H]1CCc2ccc3[nH]c(C#N)cc3c2C1 | -1%
Cc1ccc(N[S+](=O)([O-])c2cc3c(cc2N[C@@H](C)CO)NC(=O)CC3)cc1N[C@@H](C)CO | ?
O=C(Nc1nnc(N2CCCC2)s1)Nc1cc(F)ccc1F | -23%
Cc1nn(C(C)C(=O)NCc2ccco2)c(=O)c2nn(-c3ccccc3)c(C)c12 (centres undefined) | -29%
CCc1c(C)nc2cc(-c3ccc(OC)c(OC)c3)nn2c1N1CCCC1 | -3%
Cc1ccc(Nc2nnc(-c3cc4c(ccc5ccccc54)oc3=O)s2)cc1 | -16%
COc1ccc(CCNC(=O)CCn2c(=O)c3cccn3c3ccc(F)cc32)c(OC)c1OC | -16%
Cc1occc1-c1nc2ncccc2[nH]1 | ?
